# Source: PubChem BioAssay
# Rce1 inhib: yeast Rce1p protease inhibitors, primary screen, biochemical, fluorescence, cell-free homogeneous; CAAX prenyl protease 2 (Saccharomyces cerevisiae (strain ATCC 204508 / S288c)), Q03530; yeast membranes, quenched prenylated peptide cleavage fluorescence; calls only; actives 0.27% (n = 290,000);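 active = fall in fluorescence gain of 50% or more versus controls, with final raw signal at or below 3038400; inconclusive = same 50% fall but final raw signal above 3038400; inactive = fall in fluorescence gain under 50%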;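 also: plate controls were neutral control wells for no effect and wells lacking membranes for full effect; tested at 10 µM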
# Target sequence (Q03530 whole entry, looked up): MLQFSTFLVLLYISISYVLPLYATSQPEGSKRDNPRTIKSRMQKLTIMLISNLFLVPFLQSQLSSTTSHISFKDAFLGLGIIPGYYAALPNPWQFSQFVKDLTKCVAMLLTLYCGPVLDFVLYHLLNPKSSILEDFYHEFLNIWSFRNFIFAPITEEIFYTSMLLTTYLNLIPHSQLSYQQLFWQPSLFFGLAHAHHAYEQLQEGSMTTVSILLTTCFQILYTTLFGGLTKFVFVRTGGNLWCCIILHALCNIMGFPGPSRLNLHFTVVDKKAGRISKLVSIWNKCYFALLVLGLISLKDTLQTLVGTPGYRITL
# Env fusion inh: inhibitors of HIV-1 Env-driven cell-cell fusion, primary screen, HeLa-JRFL effector, CEM21 target cells, luciferase. inhibition, % at 12.3 µM. actives 1.1% (n = 360,000). AID 651610, 2012;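 active = mean replicate inhibition score of at least 50 and every replicate individually at or above 50; inconclusive = only one of the two criteria met; inactive = mean below 50 and not all replicates reaching 50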;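 also: 0% = plate neutral controls and 100% = maraviroc near 300 nM; one replicate is shown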
# eIF4H FP inh: human eIF4H binding inhibitors, primary screen, translation initiation inhibitor project, biochemical, uHTS, fluorescence polarization | AID 2012, 2009 | actives 0.94% (n = 290,000) | eIF4H fluorescence polarization binding assay | inhibition, % at 35 µM | Eukaryotic translation initiation factor 4H (Homo sapiens), Q15056;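 active = 50% or more with normal probe brightness, or confirmed in later tests; inconclusive = above 50% with abnormal brightness, or retests that disagree; inactive = below 50% or failed in later tests; about a fifth of its hits are not listed in these tables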;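 also: calls also rest on retests at 20 µM and on dose response follow-up; 0% = protein and probe with vehicle and 100% = probe without protein; strong numbers were not always called active; many hits fall short of the cut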
# MT1-MMP act inh: blockers of MT1-MMP proenzyme processing, primary screen, HT1080 RFP-PRO-GFP cells, GFP/RFP fluorescence. GFP/RFP ratio change, % at 20 µM. GFP/RFP ratio fluorescence, overnight; percent of plate control window, DMSO zero. actives 0.061% (n = 360,000);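 active = GFP/RFP ratio change of at least 30% with cell ATP level not reduced by more than half and red fluorescence within 50% of control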; also: strong numbers were not always called active
#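 Assay system: HT1080 RFP-PRO-GFP cells. Benchmarks: DMSO vehicle wells and RFP-L50D-GFP reporter cell wells. Times: overnight cell settling, then overnight compound exposure, 37 °C, 5% CO2. Compound: 20 µM single dose, 1% DMSO. Read-out basis: GFP/RFP fluorescence ratio.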
# Yeast UUG start: modulators of yeast start codon fidelity, primary screen, whole organism, S. cerevisiae, single point, plate reader; S. cerevisiae UUG-firefly luciferase reporter, luminescence/redox ratio; activity score, % at 18.7 µM; actives 0.13% (n = 350,000);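 active = replicate mean at a twofold rise or more, about +100% in these data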;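 also: firefly luciferase made from a UUG start codon reports start codon fidelity; reporter light over untreated wells divided by growth signal over untreated wells; some hits fall short of that in this replicate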
# PABP FP inh: PABP poly(A) RNA binding inhibitors, primary screen, biochemical, fluorescence polarization, uHTS; Polyadenylate-binding protein 1 (Homo sapiens), P11940; actives 1% (n = 290,000); AID 2014, 2009; inhibition, % at 35 µM;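 active = 50% or more with normal probe brightness, or confirmed in later tests; inconclusive = above 50% with abnormal brightness, or retests that disagree; inactive = below 50% or failed in later tests; about a fifth of its hits are not listed in these tables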;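 also: calls also rest on retests at 20 µM and on dose response follow-up; controls were probe without protein and protein plus probe with vehicle; some compounds called inactive have numbers as strong as hits; many hits fall short of the cut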
# CSC inhib: cancer stem cell viability inhibitors, primary screen, luminescence; cancer stem cell-like cells viability; inhibition, % at 7.5 µM; actives 1.1% (n = 300,000); AID 2717, 2010;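 active = mean at 75% or more and at least half the replicates too; inconclusive = mean and replicates disagree; tested in HMLE shEcad cells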;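 also: 0% = median of negative and 100% = median of positive control wells; the first replicate is given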
# MT1-MMP act inh RFP: recorded beside MT1-MMP act inh, whose call it bears; RFP signal change, %; measured here: RFP expression control read;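 0 = vehicle wells; hits needed this value within 50% of zero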
# The depositor's hits bear a star; i = inactive; ? = inconclusive; . = not tested or not shown.
Structure,Rce1 inhib,Env fusion inh,eIF4H FP inh,MT1-MMP act inh,MT1-MMP act inh RFP,Yeast UUG start,PABP FP inh,CSC inhib
CC(C)CCNC(=O)c1cc(-c2cccs2)nc2ccccc12,i,3,-13,0,-4,-12,17,-5
CCOC(=O)N1CCN(C(=O)c2ccccc2NC(=O)c2ccc(C(C)(C)C)cc2)CC1,i,1,-12,-3,0,.,-6,-4
Cc1ccc(S(=O)(=O)N=C2SCCCS2)cc1,i,.,-3,4,5,-12,0,7
COc1ccc(OC)c(NC(=O)CS(=O)(=O)Cc2nc(-c3ccccc3C)oc2C)c1,i,.,-7,3,2,-8,-11,-14
C=CCOc1ccc(/C=N/NC(=O)C(=O)Nc2ccccn2)cc1OC,i,-7,3,-1,-2,-14,-12,-16
COc1ccc(C2C(C#N)=C(/N=C/N3CCN(C)CC3)OC3=C2C(=O)CC(C)(C)C3)cc1OC (stereo not given),i,.,-12,-3,-1,11,3,-15
CC1CCN(C(=O)CSc2nc3c(cnn3-c3ccc(Cl)cc3)c(=O)[nH]2)CC1,i,-26,-7,4,0,2,-5,.
CC1=C(C(N)=O)C(c2ccccn2)n2nc(SCc3ccccc3Cl)nc2N1 (stereo not given),i,-55,-8,-4,1,-15,-12,1
O=C(O)c1ccccc1-c1ccccc1C(=O)NNc1ccc([N+](=O)[O-])cc1,i,-5,3,5,2,.,8,10
CC(C)NC(=O)CN(C(=O)CCC(=O)Nc1nccs1)c1ccc(C(C)C)cc1,i,2,9,4,0,-8,0,-11
COc1cc(CNC(=O)c2cc3ccccc3oc2=O)cc(OC)c1OC,i,9,.,3,-5,.,.,-3
CN(C)CCCNS(=O)(=O)c1ccc(N2CCC(c3ccc(Cl)cc3)=N2)cc1,?,-127,-2,.,.,.,-16,112*
CN1C[C@H]2CON(C)[C@H]2C[C@H]1c1cccc(-c2ccc(C#N)cc2)c1,.,9,.,1,2,-14,.,.
C=CCn1c(Sc2ccccc2)nc2c1c(=O)[nH]c(=O)n2C,i,.,14,3,5,-5,6,-5
COc1ccc(F)cc1S(=O)(=O)Nc1cccc(C(=O)O)c1,i,-11,6,1,6,.,1,5
O=C(Nc1ccnc(-c2cccnc2)n1)c1ccc(F)cc1,.,.,12,.,.,.,-4,-6
Cc1ccc(OCCn2cc(C#N)c3ccccc32)cc1,.,.,0,0,-1,-6,-7,4
CC1(C)Cc2nc3[nH]c(=S)[nH]c(=O)c3cc2CO1,i,1,-8,4,-1,-10,-1,-10
Cc1ccc2nc(SCc3cccc([N+](=O)[O-])c3)nc(C)c2c1,i,.,-7,1,-3,-3,-8,35
Cc1cc(=O)n2c(n1)NC(Nc1cccc(C)c1C)=NC2c1ccc(F)cc1 (stereo not given),i,-2,3,-1,0,8,16,-21
Cn1cc(C(=O)N2CCc3ccccc3C2)c(=O)c2cc(S(=O)(=O)N3CCCCC3)ccc21,i,.,0,.,.,.,-2,2
COc1ccc([N+](=O)[O-])cc1N(CC(O)CN1C(=O)NC(C)(C)C1=O)S(=O)(=O)c1ccccc1 (stereo not given),i,0,-5,-2,-1,4,2,9
COC(=O)C(NC(=O)c1ccc(F)cc1)(Nc1nc(C)cs1)C(F)(F)F (stereo not given),i,.,4,4,6,5,-4,1
CCC(=O)n1nc(-c2ccc(OC)cc2)nc1N,i,.,-1,0,3,-13,-13,.
COc1cc(-c2c(C#N)c(N)nc3c2CCCC3)cc(OC)c1OC,i,26,0,-5,-3,4,-2,5
CCOc1ccc(-c2nnn(CC(=O)Nc3cc(OC)ccc3OC)n2)cc1OCC,i,.,-5,2,0,-15,3,-12
CC1(C2CC2)NC(=O)N(CC(=O)NCC(=O)Nc2ccc(F)c(F)c2F)C1=O (stereo not given),.,-9,.,-3,-1,-11,.,-10
Cc1cccc(/N=C/C2=C(O)CC(C)(C)CC2=O)n1,i,-6,-3,2,2,.,-10,-8
COc1cc2c(cc1OC)C1(CCCC1)CNC2c1cccc([N+](=O)[O-])c1 (stereo not given),i,8,-2,-4,0,1,0,-7
CCN(CC)C(=O)Cn1cnc2sc(C(=O)N3CCN(c4ccc(OC)cc4)CC3)c(C)c2c1=O,i,.,-6,4,2,-16,6,-15
O=C(COc1cc(Cl)ccc1Cl)Nc1nnc(C2CC2)s1,i,-19,-2,4,6,-10,8,2
CCOC(=O)N1CCC(NCCNC(=O)c2ccc(F)cc2)CC1,.,23,.,2,6,-2,.,2
O=C(NCCC(=O)N1CCCCC1)c1ccc(Br)cc1,i,-35,-15,0,0,-12,-2,2
C[C@H](NC(=O)c1nc[nH]c1C(=O)NCc1ccccc1)C(=O)OC(C)(C)C,i,4,-6,9,0,2,13,4
Cc1nnnn1/C(=C\c1ccccc1)C(=O)OCC(=O)N(C)C1CCS(=O)(=O)C1 (stereo not given),i,.,1,-3,1,.,-5,-6
COCCn1nnnc1C(c1cc2ccc(OC)cc2[nH]c1=O)N1CCc2ccccc2C1 (stereo not given),i,-34,15,-10,1,-5,20,7

# Single records (already shown). Order of values: Rce1 inhib | Env fusion inh | eIF4H FP inh | MT1-MMP act inh | MT1-MMP act inh RFP | Yeast UUG start | PABP FP inh | CSC inhib
# `CCN(CC)C(=O)Cn1cnc2sc(C(=O)N3CCN(c4ccc(OC)cc4)CC3)c(C)c2c1=O` is entered as i | . | -6 | 4 | 2 | -16 | 6 | -15
# `CC1(C2CC2)NC(=O)N(CC(=O)NCC(=O)Nc2ccc(F)c(F)c2F)C1=O` (stereo not given) is entered as . | -9 | . | -3 | -1 | -11 | . | -10

# Next results.
Structure,Rce1 inhib,Env fusion inh,eIF4H FP inh,MT1-MMP act inh,MT1-MMP act inh RFP,Yeast UUG start,PABP FP inh,CSC inhib
O=C(O)CCC(NC(=O)c1cncc(O)c1)C(=O)O (stereo not given),i,25,8,4,0,0,0,-7
O=C(/C=C/c1ccco1)N(Cc1ccc(F)cc1)C1CCS(=O)(=O)C1 (stereo not given),i,-10,4,-3,-5,.,-3,-10
N#CCCN(C(=O)CN1C(=O)NC2(CCCC2)C1=O)c1ccccc1F,i,-168,8,1,2,-24,6,-15
Cc1ccc2nc(-c3ccc(O)c(O)c3)cn2c1,i,-15,23,0,-11,-84,4,37
O=C(CSc1nnc(NC(=O)C2CC2)s1)Nc1ccc(F)cc1F,i,-5,10,1,1,11,2,-19
COc1ccc(OCC(O)CN2CCN(c3ccc(Cl)cc3)CC2)cc1 (stereo not given),i,29,-7,11,-9,8,0,25
CC(=O)C1(C)OC(N)=C(C#N)C(c2ccccc2)C1(C#N)C#N (stereo not given),i,-104,?,-32,28,5,?,0
C#CCOc1ccc(C2C3=C(CC(C)(C)CC3=O)N(CC(=O)O)C3=C2C(=O)CC(C)(C)C3)cc1OC,i,-8,5,3,4,-7,13,-3
O=C(O)CN=CC1=C(O)CC(c2ccccc2)CC1=O (stereo not given),i,7,0,-4,3,-16,9,-11
COC(=O)c1ccc(C2/C(=C(/O)c3ccc(OC)cc3)C(=O)C(=O)N2CC2CCCO2)cc1 (stereo not given),i,.,9,-2,2,-7,0,.
Cc1nn(CC(=O)NCCCN2CCCCC2)c(=O)c2cccn12,i,-10,-12,-2,3,-16,-9,0
O=C(O)Cc1cn(-c2ccccc2)nc1-c1ccccc1,i,19,1,1,2,0,?,.
C/C(=N\Nc1nc(-c2ccccc2)cs1)c1cccs1,i,-18,-10,8,-4,-12,3,25
Cc1cc(C(=O)NCc2ccc(S(N)(=O)=O)cc2)cs1,i,.,1,0,-4,-3,-8,3
COc1cccc(CN2CCNC(=O)C2CC(=O)NCCN2CCCCC2=O)c1 (stereo not given),i,3,0,-5,1,-14,10,.
CCc1cccc(C)c1NC(=S)NCC(c1cccnc1)N1CCOCC1 (stereo not given),i,-22,-6,4,7,.,-4,-3
COC(=O)c1ccccc1NC(=O)n1cc(C)cn1,i,-13,-4,-3,-2,-6,1,-8
COc1ccc2ccccc2c1/C=N/NC(=S)Nc1cc(S(=O)(=O)N2CCOCC2)ccc1N1CCOCC1,i,-9,1,6,1,-20,2,.
O=C(NCc1cccnc1)C(=O)NCC1OCCCN1S(=O)(=O)c1ccccc1 (stereo not given),i,10,2,2,6,.,-1,-8
Cc1cc(OCC(=O)N2CCC(C(N)=O)CC2)c2c(C)c(C)c(=O)oc2c1,i,.,-2,0,0,-24,6,-1
CNC(=O)c1cc(C(=O)c2ccc(Cl)cc2)c[nH]1,i,-20,-13,5,4,-14,-6,.
Cc1cc(C)c2cc(C#N)c(NCCOC(=O)c3ccccc3C)nc2c1,i,.,-9,-1,0,-18,-1,-2
COC(=O)c1cc(COc2ccc3c4c(c(=O)oc3c2)CCC4)c(C)o1,i,.,-5,.,.,.,-2,-9
CCCc1cc(=O)n2c(nc3ccccc32)[nH]1,i,.,6,0,2,-8,1,2
CCC(C)[C@H]1COCCS(=O)(=O)N1Cc1ccc(C)cc1 (stereo not given in full),i,-10,4,2,0,14,17,17
O=C(Nc1ccc(-c2nc3cc(NC(=O)c4cccs4)ccc3o2)cc1)c1cccs1,i,8,6,-1,2,-5,1,10
CC1=CC(C)(C)[N+](C)=CN1c1ccccc1,?,.,-2,-5,0,.,-4,11
N#CCOC(=O)[C@H](Cc1ccccc1)N1C(=O)c2ccccc2C1=O,i,7,6,2,0,2,-7,-18
O=S(=O)(NCc1ccc2c(c1)OCO2)c1ccc(F)c(F)c1,i,-38,4,2,1,-11,-14,-8
COCCn1c(SCC(=O)NC2CCCC2)nc2ccccc2c1=O,.,7,.,-4,1,-8,.,.
CCOc1ccc(Cl)cc1/C=N/NC(=O)c1ccccc1,i,7,9,5,1,.,11,3
COc1cc(C2c3c(oc4ccccc4c3=O)C(=O)N2c2nccs2)ccc1O (stereo not given),i,-5,-3,1,-3,-8,10,-19
CCCCCCCSc1nnc(-c2ccccc2N)c(=O)[nH]1,.,14,-7,0,0,-9,-4,-4
NC(=O)c1snnc1-c1ccccc1,i,5,-4,1,2,-19,-13,5
CCOc1ccc(NC(=O)CSc2ccccc2N)cc1,i,-20,6,7,3,-1,1,2
O=C(N/N=C/c1ccc(OCC(=O)N2CCOCC2)cc1)c1ccccc1Cl,i,3,-8,-1,3,.,-4,15
CNC(=S)Nc1ccc(N2CCN(c3ccc(C(F)(F)F)cn3)CC2)nc1,i,6,-3,1,-20,-18,-9,34
CN(C(=O)c1cccc(NC(=O)Cc2cccc(NC(=O)C3CCCN(C(=O)C4CCCC4)C3)c2)c1)C1CCC1 (stereo not given),.,14,.,0,-7,-27,.,.
Cc1nn(-c2ccccc2)c(C)c1C(=O)NCCc1ccccc1,i,-17,3,2,1,-15,10,-3
CCCOc1ccc(CNC(=O)CCC(=O)n2ncc3cc(C)ccc32)cc1,i,-12,-13,1,1,-13,2,6
COc1ccc(CC(=O)N2CCN(C(=O)Cc3ccc(OC)cc3)CC2)cc1,i,-8,-15,-5,3,-9,-6,-2

# Compounds were not picked by outcome; any-hit rate near 2.9%.
